BJeLR viability: kills HRASV12-expressing BJeLR cells; 300,000 tested, 0.17% active; inhibition, % (test concentration not listed); BJeLR (HRASV12) viability, CellTiter-Glo ATP luminescence, 48 h; reference of the scale not given here;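 active = replicate mean above 50%; inconclusive = above 50% but judged a plate artefact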;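 note: 50 nL library stock added to about 25 µL; numbers are from one replicate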
RN4220 kill: S. aureus RN4220 growth inhibition. OD600, 16 h. inhibition, % (test concentration not listed). 330,000 tested, 0.33% active;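 active = z-score of -3 or lower and OD600 up to 0.18 on both plates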;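 note: plate controls were untreated cells for no effect and reference antibiotic for full effect; stock transfer was 100 nL into about 80 µL; one replicate is shown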
ugtP null kill: kills S. aureus RN4220 lacking UgtP; S. aureus RN4220 ugtP deletion, OD600 growth, 16 h; some inactives read as strong as hits; growth inhibition, % (concentration not given with the values); 330,000 tested, 0.54% active; AID 1259309;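 active = z-score under -3 and OD600 up to 0.15 on both plates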;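 note: plate controls were untreated wells for no effect and antibiotic for full effect; wells of about 80 µL received 100 nL stock; the first replicate is given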
Mtb hypoxia rep: Mtb hypoxia fluorescent reporter inhibition; M. tuberculosis hypoxia-regulated fluorescent reporter, fluorescence; fluorescence inhibition, % (concentration not given with the values); 300,000 tested, 0.1% active;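 active = 35 to 45% if threefold the growth effect, above 45% if 1.5-fold the growth effect; inactive = the rest, general growth blockers included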;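 note: wells of about 50 µL received 100 nL stock; 0% = vehicle wells and 100% = reference inhibitor wells; whole bacteria with a GFP reporter of the hypoxia response; strong numbers were not always called active; many hits fall short of the cut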
Bead autofluor: compound fluorescence in toxin protease inhibitor counterscreen; compound autofluorescence counterscreen, microsphere flow cytometry; stronger effect = higher value; fluorescence intensity (test concentration not listed); 360,000 tested, 3.1% active; AID 624483;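 active = at least 3 SD above the mean of all compounds, about 16000 in these data; inconclusive = too few beads counted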;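 note: 100 nL of 1 mM stock went into each well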
PrP UTR inh: suppresses PrP 5' UTR mRNA reporter expression; inhibition, % (no concentration beside the values); cell-based PrP 5' UTR mRNA reporter, plate reader; 340,000 tested, 0.35% active; AID 488862;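 active = every replicate at 50% or more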;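 note: 0 = median of the neutral control wells; tested in H4 reporter cells; numbers are from one replicate; inactives centre near -14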
Mtb hypoxia rep growth: also measured in Mtb hypoxia rep; calls as there; growth inhibition, %; measured here: M. tuberculosis growth (absorbance);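 0% = vehicle and 100% = reference antibiotic; read after six days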
Active calls of the source: *; ? = inconclusive; nt = no result given.

Every second line gives: Mtb hypoxia rep growth | Mtb hypoxia rep | ugtP null kill | RN4220 kill | BJeLR viability | PrP UTR inh | Bead autofluor
Nc1ccccc1C(=O)N1O[C@@H]2C=C[C@H]1C2
→ 1 | -1 | -1 | 4.3 | nt | -14 | 3719
COc1ccc(OC)c(NC(=O)Cn2c(CCC(=O)O)ccc2-c2cccs2)c1
→ nt | nt | 3 | 8.3 | 5 | -17 | 3696
COc1ccc(C(=O)NC2CC3CCCC(C2)N3CC(C)C)cc1 (stereo not drawn)
→ 12 | 0 | 0 | 0.7 | -6 | -24 | 4099
C[C@H]1CN=C2N(CCNC(=O)CCC3CCCCC3)[C@H](Cc3ccc(O)cc3)CN21
→ nt | nt | nt | nt | -8 | -32 | 3381
CCC(Sc1nc(C)cc(=O)[nH]1)C(=O)Nc1nc(-c2ccccc2)cs1 (stereo not drawn)
→ -7 | -9 | -13 | 3.9 | nt | -19 | 22493*
CN(Cc1ccc(OC(F)F)cc1)Cc1nc2c(Br)cc(Br)cc2c(=O)[nH]1
→ -4 | 20 | -12 | -1.3 | -10 | -41 | 4331
CCOc1ccccc1N1CCN(c2ncnc3scc(-c4ccc(OC)cc4)c23)CC1
→ 7 | -5 | -8 | -7.8 | 2 | -23 | 6351
Cc1ccc2c(C)nc(N/C(N)=N/S(=O)(=O)c3ccc([N+](=O)[O-])cc3)nc2c1
→ 17 | 4 | 3 | -5.6 | -5 | -12 | 2009
O=C(Nc1cccc(S(=O)(=O)N2CCCCC2)c1)C1CC(=O)N(Cc2ccco2)C1 (stereo not drawn)
→ -6 | -9 | 7 | 4.8 | -2 | -13 | 4488
COc1ccc(NC(=O)Cn2nc3n(c2=S)CCC3)cc1
→ nt | nt | -3 | 1.4 | -5 | -12 | 4861
Cn1c(SCC(=O)Nc2ccc(Br)cc2)nc(O)cc1=O
→ 1 | 4 | 9 | 4.2 | -4 | -22 | 4235
Cc1ccc(S(=O)(=O)N2CCOCC2)cc1NC(=O)COc1ccc(C(=O)c2ccccc2)cc1
→ 7 | 2 | -1 | 4.5 | nt | -25 | nt
Cc1ccc(C2c3[nH]c4ccccc4c3C[C@H]3C(=O)N(c4ccccc4C(=O)N4CCC(C(=O)O)CC4)C(=O)N23)cc1 (stereo partly drawn)
→ nt | nt | -5 | 11 | 5 | -19 | 6406
CC(C)c1ccc(NC2CCCN(C(=O)CCN3CCCCC3=O)C2)cc1 (stereo not drawn)
→ -4 | 4 | 4 | 2.9 | 0 | 1 | 4303
Cc1cc(C)n2nc(CC(=O)NNC(=O)c3ccc(N(C)C)cc3)nc2n1
→ 0 | 11 | 15 | 6.4 | -5 | -11 | 4271
Cc1cc(N2CCOCC2)ccc1C=C[N+](=O)[O-]
→ 18 | 9 | -3 | 14 | nt | nt | nt
Cc1ccc2c(c1)N(CC(=O)NCCCN1CCOCC1)C(=O)C(C(C)C)O2 (stereo not drawn)
→ -3 | -6 | 1 | -2.5 | -5 | -13 | 6472
O=C(NCCc1cccc(Cl)c1)c1cccnc1
→ 8 | 7 | 6 | -0.1 | -6 | -47 | 3229
CCc1cc(C(=O)c2ccc(OC)cc2)c(NC(=O)CC(C)(C)CC(=O)O)s1
→ 15 | 9 | -8 | 13 | 4 | -12 | nt
COc1ccc(C(CNC(=O)C(=O)NC2CCCCC2)N2CCN(C)CC2)cc1 (stereo not drawn)
→ 6 | 1 | 2 | 2.8 | 2 | -4 | 5934
CCOC(=O)c1[nH]c(C)c(C(=O)NC2CCCCC2)c1C
→ nt | nt | 11 | 0.9 | 4 | -45 | 5793
CC(=O)Nc1cccc(C(=O)OCC(=O)NCc2cc(C)c(O)c(C)c2)c1
→ 8 | 8 | -4 | 5.3 | -4 | -45 | 4412
O=C(CSc1nnc(COc2ccccc2)o1)NC1CC2CCC1C2 (stereo not drawn)
→ 12 | 14 | 8 | 0.9 | -6 | -6 | 5313
CCOc1nc(NCCO)nc(NCCC2=CCCCC2)n1
→ nt | nt | 3 | 1.2 | -12 | -26 | 2943
Cc1c(Cl)cccc1NC(=O)CSc1nc(=O)n(CCCN2CCOCC2)c2c1CCC2
→ 3 | 3 | 3 | 1.2 | 11 | -12 | ?
Cc1ccc(S(=O)(=O)NNC(=S)Nc2c(Cl)cccc2Cl)cc1
→ -3 | -3 | 3 | 5.5 | 4 | -9 | 6138
Cc1ccc(C2=NN(CC(=O)NCc3cccnc3)C(=O)CC2)cc1
→ 3 | -6 | -2 | 0.4 | -1 | nt | nt
Cc1cc(C)cc(N2C(=O)NC(=O)C(=Cc3cc(C)n(C)c3C)C2=O)c1
→ 6 | 0 | -10 | -1.0 | nt | nt | nt
Cn1c(=O)c2c(nc(NCCOc3ccc(C(C)(C)C)cc3)n2C)n(C)c1=O
→ 0 | 8 | -1 | 4.8 | -10 | -15 | 2326
COc1ccc(Cl)cc1C(=O)NNC(=O)c1cccc(S(=O)(=O)N(C)C)c1
→ 7 | 4 | -1 | -5.1 | -5 | -16 | 2372
Cc1ccccc1NS(=O)(=O)c1cccc2nsnc12
→ 6 | 15 | 3 | 3.0 | 2 | -13 | 4103
CCOC(=O)C1CN(S(=O)(=O)c2cccc(C(F)(F)F)c2)c2cc(CC(=O)OC)ccc2O1 (stereo not drawn)
→ 4 | 2 | 6 | 6.6 | -12 | -11 | 9871
Cc1[nH]nc2c1C(c1cccc(O)c1)C1=C(CC(C)(C)CC1=O)N2 (stereo not drawn)
→ 7 | -2 | -5 | 1.0 | 1 | -1 | 2455
Cc1nnc2n1CCCCC2
→ 4 | -6 | 6 | 1.9 | -2 | -5 | 4056
O=S(=O)(/N=C(/c1ccccc1)N1CCOCC1)c1ccc(F)cc1
→ nt | nt | nt | nt | 7 | -6 | 3142
Cc1ccc(C(=O)C(OC(=O)c2cnccn2)c2ccccc2)cc1C (stereo not drawn)
→ 7 | 4 | 1 | 4.2 | 0 | -10 | 2396
O=C(CCC(=O)Nc1nnc(C2CCCCC2)s1)NCC1CCCO1 (stereo not drawn)
→ -5 | 5 | 3 | 1.7 | 2 | -4 | 9223
COc1ccc(-n2cc(C(=O)c3cc4ccccc4oc3=O)c(C(C)=O)n2)cc1
→ 6 | 1 | -5 | 3.2 | -5 | -13 | 9830
c1ccc(-c2csc(NNC3=NCCCCC3)n2)cc1
→ nt | nt | -25 | 3.6 | 10 | -31 | 2207
O=C(CSc1ccc2c(c1)OCCO2)Nc1ccc2c(c1)OCO2
→ -2 | 11 | 0 | -12 | 2 | -26 | 3679
O=C(Nc1ccc(N2CCOCC2)c(Cl)c1)c1ccc(-n2cnnc2)cc1Cl
→ 9 | 5 | 4 | -5.9 | 1 | -5 | 6160
CCOC(=O)CN(C#N)c1nc(N(C)C)nc(N(C)C)n1
→ nt | nt | nt | nt | 19 | -19 | 4564
CCn1c(SCC(=O)Nc2ccc(OC)cc2)nc2nc3c(cc2c1=O)COC(C)(C)C3
→ 0 | -2 | 8 | 3.1 | -11 | nt | 3486
O=C(c1ccccc1)N1CCC(c2nc3c(nnn3Cc3ccco3)c(=O)[nH]2)CC1
→ 7 | 8 | 5 | -4.2 | 12 | -5 | 4325
Cc1ccccc1-c1nc(CS(=O)CC(=O)NC2CC2)c(C)o1 (stereo not drawn)
→ 5 | 2 | -6 | -2.5 | -6 | -8 | 5818
CC1CCCCC1NC(=O)c1ccc(S(=O)(=O)NCC2CCCO2)cc1 (stereo not drawn)
→ 7 | -3 | 3 | 7.0 | -17 | -4 | 3324
CCOC(=O)c1cc(C)n(Cc2cccc(OC)c2OC)c1C
→ 4 | 4 | 12 | 3.1 | 4 | 3 | 4406
Cc1ccc(OCC(=O)Oc2c(C)cccc2C)cc1
→ 11 | -1 | 12 | -3.2 | 3 | -41 | 3719
COC(=O)c1sccc1NS(=O)(=O)c1ccc(OC)cc1
→ 8 | 7 | -2 | 13 | -4 | -11 | 11083
O=C(CN(C(=O)CCC(=O)Nc1ccccn1)c1ccccc1F)NCc1ccc2c(c1)OCO2
→ 0 | 10 | 2 | 2.8 | 5 | 16 | 3120
COc1ccccc1NC(=O)N(Cc1ccccc1)C1=NCC(C)S1 (stereo not drawn)
→ 7 | -7 | 10 | -2.0 | -2 | -3 | 22072*
N#Cc1nc(-c2cccc3ccccc23)oc1NCCN1CCCCC1
→ 8 | 9 | -3 | -7.1 | -7 | -16 | 9785
O=C(C1=COCCO1)N1CCN(c2nc3ccc([N+](=O)[O-])cc3s2)CC1
→ 5 | -7 | -5 | -4.8 | 7 | -16 | 5927
O=C(NCc1ccccc1CN1CCCC1)c1cc2cc(Cl)ccc2o1
→ 7 | 3 | -3 | -3.2 | nt | -13 | 3938
CNC(=O)Cn1nc(C)c2ccccc2c1=O
→ 1 | 5 | 6 | 6.2 | -6 | -2 | 9641
CCOC(=O)C(CC)n1cnc2c(oc3ccccc32)c1=O (stereo not drawn)
→ 11 | 10 | 1 | 4.2 | -9 | -30 | 4524
O=C(NC1CCN(C(=O)c2cccc([N+](=O)[O-])c2)CC1)c1ccccc1
→ 2 | 2 | 3 | 0.0 | 4 | -19 | 4217
Cc1ccc(-n2c(SCC(=O)N3CCOCC3)nnc2-c2ccncc2)cc1C
→ -2 | 6 | 3 | -2.0 | 0 | 3 | 3577
COc1ccc(OCc2cc(=O)c3ccc4c(c3o2)C=CC(C)(C)O4)cc1OC
→ 0 | 3 | -10 | -1.4 | nt | -21 | 3475
Cc1cnn(C(=S)NCC2CCCO2)c1 (stereo not drawn)
→ 1 | 7 | 13 | 2.7 | 1 | -11 | 2974

Further compounds follow:
Every second line gives: Mtb hypoxia rep growth | Mtb hypoxia rep | ugtP null kill | RN4220 kill | BJeLR viability | PrP UTR inh | Bead autofluor
O=C(N1CCCC1)C12CCC3CC(CC(C3)C1)C2
→ nt | nt | 10 | 8.7 | 3 | 0 | 3177
CC1CCCN(CC(O)COc2ccc(-c3ccccc3)cc2)C1 (stereo not drawn)
→ 8 | 2 | 2 | -1.4 | -6 | -8 | 3830
Cc1ccccc1OCC(=O)NCC(=O)OCc1ccc(Br)cc1
→ -6 | 2 | 15 | 5.6 | 5 | -9 | 4574
CCOc1ccc2nc(NC(=O)c3cccc(-c4cc5ccccc5oc4=O)c3)sc2c1
→ 6 | 17 | -6 | 6.5 | 20 | -11 | 2493
CC(C)(C)c1ccc(C(=O)OCc2c(-c3ccccc3)ncc3ccccc23)cc1
→ 3 | 2 | 59 | 3.4 | nt | -1 | 2937
CN(C)c1ccc(C(=O)/C=C/c2ccco2)cc1
→ -3 | 5 | -3 | -1.1 | -9 | -85 | 2735

Sorted by SMILES length (lowest first): some entries from above.
Every second line gives: Mtb hypoxia rep growth | Mtb hypoxia rep | ugtP null kill | RN4220 kill | BJeLR viability | PrP UTR inh | Bead autofluor
Cc1cnn(C(=S)NCC2CCCO2)c1 (stereo not drawn)
→ 1 | 7 | 13 | 2.7 | 1 | -11 | 2974
CNC(=O)Cn1nc(C)c2ccccc2c1=O
→ 1 | 5 | 6 | 6.2 | -6 | -2 | 9641
CN(C)c1ccc(C(=O)/C=C/c2ccco2)cc1
→ -3 | 5 | -3 | -1.1 | -9 | -85 | 2735
O=C(N1CCCC1)C12CCC3CC(CC(C3)C1)C2
→ nt | nt | 10 | 8.7 | 3 | 0 | 3177
CCOC(=O)C(CC)n1cnc2c(oc3ccccc32)c1=O (stereo not drawn)
→ 11 | 10 | 1 | 4.2 | -9 | -30 | 4524
Cc1ccccc1OCC(=O)NCC(=O)OCc1ccc(Br)cc1
→ -6 | 2 | 15 | 5.6 | 5 | -9 | 4574
N#Cc1nc(-c2cccc3ccccc23)oc1NCCN1CCCCC1
→ 8 | 9 | -3 | -7.1 | -7 | -16 | 9785
COc1ccccc1NC(=O)N(Cc1ccccc1)C1=NCC(C)S1 (stereo not drawn)
→ 7 | -7 | 10 | -2.0 | -2 | -3 | 22072*
O=C(NCc1ccccc1CN1CCCC1)c1cc2cc(Cl)ccc2o1
→ 7 | 3 | -3 | -3.2 | nt | -13 | 3938
Cc1ccc(-n2c(SCC(=O)N3CCOCC3)nnc2-c2ccncc2)cc1C
→ -2 | 6 | 3 | -2.0 | 0 | 3 | 3577
COc1ccc(OCc2cc(=O)c3ccc4c(c3o2)C=CC(C)(C)O4)cc1OC
→ 0 | 3 | -10 | -1.4 | nt | -21 | 3475
CC(C)(C)c1ccc(C(=O)OCc2c(-c3ccccc3)ncc3ccccc23)cc1
→ 3 | 2 | 59 | 3.4 | nt | -1 | 2937
CCOc1ccc2nc(NC(=O)c3cccc(-c4cc5ccccc5oc4=O)c3)sc2c1
→ 6 | 17 | -6 | 6.5 | 20 | -11 | 2493

Screens from PubChem.

An unsorted share of the library; any-hit rate near 4%.
